Source: PubChem BioAssay
GIV Gai3 FP – inhibitors of GIV GBA-motif binding to rat Galpha-i3. P08753. Galpha-i3/FITC-GIV peptide fluorescence polarization, 90 min; stronger effect = lower value; scaled: aluminum fluoride 0%, vehicle 100%. percent of control (FP), % (concentration not given with the values). 210,000 tested, 0.42% active;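 active = replicate mean at 85% of control or lower, very high polarization wells dropped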;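 also: wells of about 15 µL received 100 nL stock; the first replicate is given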
Target sequence (P08753 whole entry, looked up): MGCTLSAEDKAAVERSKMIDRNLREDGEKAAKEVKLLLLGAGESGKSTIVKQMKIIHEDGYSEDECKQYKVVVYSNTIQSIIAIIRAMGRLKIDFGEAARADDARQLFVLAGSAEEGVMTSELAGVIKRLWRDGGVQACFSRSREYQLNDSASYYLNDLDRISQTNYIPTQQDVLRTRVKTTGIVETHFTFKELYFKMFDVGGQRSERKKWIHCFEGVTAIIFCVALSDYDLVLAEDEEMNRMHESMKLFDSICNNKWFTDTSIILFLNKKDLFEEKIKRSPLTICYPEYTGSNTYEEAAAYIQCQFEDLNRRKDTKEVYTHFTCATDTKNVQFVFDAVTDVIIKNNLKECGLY
HCMV NEC inh – cytomegalovirus nuclear egress complex inhibition; AID 1918969; 190,000 tested, 0.15% active; HTRF UL50-UL53 interaction, normalized percent inhibition; inhibition, % (test concentration not listed);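 active = both replicates at 50% or more, plus weaker picks with an unusually low signal ratio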;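 also: stock transfer was 100 nL into about 20 µL; 0% = negative control wells and 100% = wells with untagged competitor protein; inactives centre near -12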
Sa growth 42C – S. aureus growth inhibition. relative growth, % (test concentration not listed). S. aureus RN4220 growth, OD600, 20 h, 42 °C; stronger effect = lower value. 170,000 tested, 0.53% active;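 active = growth at 42 °C up to 50% and 20 or more points under that at 30 °C, or under 10% at both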;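 also: 300 nL library stock went into each well; scaled to the means of positive and negative controls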
Sa growth 42C second temp – second read-out of Sa growth 42C, no call of its own (marks repeat the call); relative growth, %; measured here: growth at 30 °C;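 optical density after 20 h as mean of two plates; 100% = untreated growth and lower means inhibition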
* hit, by the source's call; . = not tested or not shown.

SMILES | GIV Gai3 FP | HCMV NEC inh | Sa growth 42C | Sa growth 42C second temp
O=S(=O)(c1ccc(Cl)cc1)c1nnn2c1nc(NCc1ccc3c(c1)OCO3)c1sccc12 | 103 | . | 107 | 83
CCOc1ccc(Cn2c(CNS(=O)(=O)c3cccs3)nc3cccnc32)cc1 | 111 | . | 115 | 102
CCCN1C(=O)c2ccccc2C(C(=O)O)C1c1ccc(OC)cc1 (stereo unspecified) | 104 | 3 | 97 | 88
COC(=O)CSc1nc2sc3c(c2c(=O)n1CC1CCCO1)CCCC3 (stereo unspecified) | . | -7 | 92 | 94
Cc1ccccc1C(=O)C(C#N)c1nc2ccc(C(F)(F)F)cc2s1 (stereo unspecified) | . | -39 | 99 | 50
COC(=O)c1nnn(-c2cccc(C)c2)c1N | 110 | -11 | 90 | 85
Cc1ccc2c(c1)N(C(C)C(=O)NCc1cccs1)C(=O)CO2 (stereo unspecified) | 111 | 9 | 104 | 99
Cc1ccc(S(=O)(=O)N2CCCC(C(=O)O)C2)cc1 (stereo unspecified) | 115 | -10 | 104 | 103
CCCn1cc(S(=O)(=O)c2ccc(C)cc2)c(=O)c2cc(F)c(N3CCN(CC)CC3)cc21 | 98 | . | 83 | 85
Cc1ccc(Cl)cc1NC(=O)CCS(=O)(=O)c1ccc2c(c1)n(C)c(=O)c(=O)n2C | 103 | 2 | 99 | 92
Cc1ccc(CNC(=O)Cc2ccc(-n3c(=O)c4sccc4n(Cc4ccccc4)c3=O)cc2)cc1 | 103 | . | 100 | 97
Cc1nn(-c2ccc3nncn3n2)c2c1C(c1ccccc1OCc1cccc(F)c1)CC(=O)N2 (stereo unspecified) | 107 | 5 | . | .
O=C(NCC(c1ccccc1)c1c[nH]c2ccccc12)C(F)(F)F (stereo unspecified) | 98 | 8 | 113 | 72
Cc1c(C(=O)NCc2ccc(Cl)cc2)sc2nc3n(c(=O)c12)CCCCC3 | 101 | -8 | 121 | 104
CCOC(=O)c1ccc(NC(=O)CSc2ncc(S(=O)(=O)c3ccccc3)c(=O)[nH]2)cc1 | 103 | 0 | 134 | 92
COCCNc1nc2c(c(=O)n(Cc3cccc(Br)c3)c(=O)n2C)n1C | 105 | . | 114 | 89
CCCNC(=O)Cn1nc(C)n2c(cc3ccccc32)c1=O | 111 | 4 | 103 | 96
Cc1c2cnn(-c3ccccc3)c(=O)c2c(C)n1CCCC(=O)N1CCc2ccccc21 | 100 | 6 | 94 | 92
Cc1ccc(C)c(-n2c(SCc3ccccc3C#N)nnc2-c2cc3sccc3n2C)c1 | 106 | 25 | 108 | 111
COc1ccc(-n2c3c(c(=O)[nH]c2=O)C(NC(=O)c2ccccc2Cl)(C(F)(F)F)C(=O)N3)cc1 (stereo unspecified) | 102 | -10 | 83 | 87
CC(=O)C1=C(O)C=C(c2ccc(C)o2)CC1c1ccccc1 (stereo unspecified) | . | -46 | 82 | 81
O=C(COc1ccc(S(=O)(=O)NCc2ccccc2)cc1)N1CCCC1 | 101 | 3 | 92 | 85
CCN(Cc1nc(-c2ccccc2)no1)C(=O)c1ccc2c(c1)OCO2 | 101 | 6 | 110 | 76
Cn1c(CSCc2nc(-c3ccc(Cl)cc3)cs2)nnc1SCC(N)=O | 99 | -12 | 120 | 77
Cc1ccc(-c2oc(NC(=O)C3CCCC3)c(C#N)c2-c2ccc(C)cc2)cc1 | . | 6 | 106 | 93
Cc1c(C(=O)c2ccccc2)c2ccccn2c1CCC#N | . | -97 | 102 | 62
CCCC(CCC)C(=O)Nc1ncc2c(n1)CCCC2=O | 101 | -18 | 102 | 97
CNC(=O)NC(=O)C(C)Oc1ccccc1-c1ccccc1 (stereo unspecified) | . | 2 | 85 | 86
CCOC(=O)c1ccc(NC(=O)c2nc(SC(C)C)ncc2Cl)cc1 | 104 | 8 | 73 | 58
COc1ccc(NC(=O)CSc2nc(-c3ccccc3)c3ccccc3n2)cc1 | 101 | -3 | 122 | 73
Cc1ccc(CNC(=O)c2ccc(Cn3c(=O)c4ccccc4n(CC(=O)Nc4ccc(C)cc4)c3=O)cc2)cc1 | 104 | -9 | 103 | 98
CCN(CC)CCN1C(=O)c2ccccc2NC1c1ccccc1F (stereo unspecified) | 108 | 5 | 101 | 80
CC(C)CC(=O)Nc1ccc(C(=O)COC(=O)CSc2nnc(-c3ccc4c(c3)OCO4)o2)cc1 | . | 2 | 100 | 90
CCc1ccccc1NC(=O)Cn1nnc(C(=O)NCc2ccccc2Cl)c1N | 99 | . | 79 | 81
O=C(N1CCCC1)N1CCC(c2ccc3c(c2)OCO3)CC1 | 104 | -7 | 83 | 86
O=C(O)c1ccccc1C(=O)OCCO | 107 | -21 | 87 | 80
COc1cc(C(=O)Oc2ccc(N(C)C3=NS(=O)(=O)c4ccccc43)cc2)cc(OC)c1OC | 100 | -26 | . | .
COc1ccc(-c2oc3ccc(OC)cc3c(=O)c2O)c(OC)c1 | . | -20 | 107 | 94
O=C(C1CCCN1S(=O)(=O)c1ccc(Cl)cc1)N1CCc2ccccc2C1 (stereo unspecified) | . | -33 | 129 | 83
CC1CCCCN1Cc1c(C#N)c2ccccc2n1C (stereo unspecified) | 105 | -12 | 111 | 79
O=C(NC1CCCc2ccccc21)c1ccc(S(=O)(=O)N2CCOCC2)cc1 (stereo unspecified) | . | 14 | 112 | 98
CCNc1nc(SCC(=O)NC(=O)NCc2ccccc2)nc2sc3c(c12)CCN(C)C3 | 117 | 1 | 83 | 83
Nc1nc(-c2cc(-c3ccccc3)no2)cs1 | 98 | -26 | 87 | 82
COc1ccc(N2CCN(C(=O)c3nn(C)c4c3CS(=O)(=O)c3ccccc3-4)CC2)cc1 | 100 | -17 | 110 | 92
CC1(C)[C@H]2CCC1(CS(=O)(=O)N(C1CCCCC1)C1CCCCC1)C(O)C2 (stereo partly specified) | . | -15 | 119 | 91
COC(=O)c1scc2c(Sc3ccc(Cl)cc3)cc(C(F)(F)F)nc12 | 104 | -20 | 99 | 92
O=C(Cn1cnc2onc(-c3ccc(F)cc3)c2c1=O)Nc1ccc(F)c(Cl)c1 | 105 | . | 95 | 80
C[C@H](Cc1ccccc1)Nc1ncnc2c1ncn2[C@@H]1O[C@H](CO)[C@H](O)C1O (stereo partly specified) | 103 | 0 | . | .
CCC(=O)Nc1ccc2c(c1)N(CC)C(C)(C)CC2C (stereo unspecified) | 120 | -16 | 84 | 79
Cc1ccc(N2CC(C(=O)Nc3ccc(-c4nc(-c5cccc(C)c5)no4)cc3)CC2=O)cc1 (stereo unspecified) | 108 | -23 | . | .
Cc1nn(Cc2ccccc2)c(Cl)c1C(=O)Nc1nnc(-c2ccccc2)o1 | . | -29 | 20 | 8
COc1ccc2nc(SCC(=O)c3ccc(Cl)c(Cl)c3)[nH]c2c1 | 98 | -12 | . | .
Cc1ccccc1NC(=O)NC(=O)CC#N | 95 | 18 | 102 | 95
CC1=NN(c2ccccc2)C(=O)C12C1C=CC(C1)C2(C(F)(F)F)C(F)(F)F (stereo unspecified) | 96 | . | 102 | 92
COc1ccc(-c2cc(=O)n(CCC#N)[nH]2)cc1 | 95 | 2 | 84 | 82
O=C(c1ccc(F)cc1)C1CCN(Cc2cnc(-c3ccccc3)[nH]2)CC1 | 106 | 8 | 114 | 87
CN(C)C(=O)c1ccc2c(c1)N(CC(=O)NCc1ccc3c(c1)OCO3)C(=O)C1CCCCN21 (stereo unspecified) | 101 | -29 | . | .
O=C(CN1CCC(NC(=O)C2CCCCC2)CC1)Nc1cccc(F)c1 | 108 | 3 | 79 | 76
CC1C(=O)CCN(Cc2ccccc2)C1C (stereo unspecified) | 96 | -21 | 90 | 83
CCC(=O)c1c(O)ccc2c(C)cc(=O)oc12 | 104 | -18 | 107 | 86

3 compounds from above, limited to GIV Gai3 FP, Sa growth 42C and Sa growth 42C second temp.
Structure | GIV Gai3 FP | Sa growth 42C | Sa growth 42C second temp
O=C(c1ccc(F)cc1)C1CCN(Cc2cnc(-c3ccccc3)[nH]2)CC1 | 106 | 114 | 87
CN(C)C(=O)c1ccc2c(c1)N(CC(=O)NCc1ccc3c(c1)OCO3)C(=O)C1CCCCN21 (stereo unspecified) | 101 | . | .
O=C(CN1CCC(NC(=O)C2CCCCC2)CC1)Nc1cccc(F)c1 | 108 | 79 | 76

Other structures
SMILES | GIV Gai3 FP | HCMV NEC inh | Sa growth 42C | Sa growth 42C second temp
COc1cccc(CNC(=O)c2ccc3cnn(Cc4cccc(Cl)c4)c3c2)c1 | 101 | -21 | . | .
N#Cc1ccc(C(=O)N2CCN(C(=O)c3ccccc3)CC2)cc1 | . | -17 | 73 | 89
COc1ccc(-c2cc(-c3nc4c5ccccc5ncn4n3)[nH]n2)cc1 | 98 | -7 | 106 | 94
O=C(NC1CCN(Cc2ccccc2)CC1)C1CCCN(c2ccnc(-c3ccc(F)cc3)n2)C1 (stereo unspecified) | 112 | -25 | . | .
COc1ccc(S(=O)(=O)N2CCN(CC(=O)Nc3ccc(Cl)c(C(F)(F)F)c3)CC2)cc1 | 102 | . | 101 | 90
COc1ccc(/C=N/NC(N)=S)cc1 | . | -27 | 91 | 87
COC(=O)c1cc(S(=O)(=O)N2CCOCC2)cn1C | 99 | . | 101 | 88
O=S(=O)(Cc1ccccc1)NCc1ccccc1 | . | -6 | 97 | 91
COC(=O)c1ccc(CN2CCN(Cc3ccc(C(=O)OC)o3)CC2)o1 | . | 5 | 95 | 92
CC1CCCN(c2nn3c(C(=O)NCCc4c[nH]c5ccccc45)cc(=O)nc3s2)C1 (stereo unspecified) | 96 | -25 | . | .
Cc1cccc(C(=O)NNc2ncnc3c2cnn3-c2ccc(Cl)cc2)c1 | 99 | -5 | 99 | 88
CC(C)c1cc(Nc2ccc(N(C)C)cc2)n2nc(-c3cccnc3)nc2n1 | 110 | -1 | . | .
CC1CCc2nc3ccc(S(=O)(=O)N4CCC(C(=O)N5CCCC5)CC4)cc3c(C(=O)O)c2C1 (stereo unspecified) | 103 | . | 94 | 82
C=CCOc1cc2c(cc1C(C)c1ccc(OC)cc1)OCO2 (stereo unspecified) | . | 5 | 114 | 90
COc1ccc(S(=O)(=O)Nc2ccc(-c3cn4c(C)csc4n3)cc2)cc1 | 102 | . | 100 | 98
Cc1ccc(NC(=O)COC(=O)C23CCC(=O)N2c2ccccc2C(=O)N3C2CC2)cc1C (stereo unspecified) | . | -34 | 101 | 97
COc1ccc(-c2nn3c(NCCCN4CCOCC4)cc(C)nc3c2C)cc1OC | 101 | 1 | . | .
CCOC(=O)C1CCN(c2nnc(Nc3ccc(C)cc3)c3ccccc23)CC1 | 97 | 2 | . | .
CCn1cc(CCC(=O)NCc2cccs2)c2ccccc21 | 102 | -13 | 89 | 77
COc1ccc(NC(=O)c2nn(C)c3c2CCc2sccc2-3)c(OC)c1 | 109 | -4 | . | .
Nc1nonc1-c1nc2ccccc2n1CC(=O)Nc1ccccc1 | . | 0 | 88 | 83
CCN(C(=O)Cc1ccc(F)cc1)C1CCCCC1 | 106 | -13 | 104 | 106
Cc1ccc2c(c1)N(CCCC(=O)Nc1ccccc1F)C(=O)CO2 | 105 | 2 | . | .
CCOc1cc(C2C(C#N)=C(N)Oc3n[nH]c(C)c32)ccc1OCc1ccccc1Cl (stereo unspecified) | 102 | -18 | . | .
CCCCCNS(=O)(=O)c1ccc(N2CCCCS2(=O)=O)cc1 | 99 | . | 98 | 79
Cc1cc(C(=O)Oc2ccc(Cl)cc2)no1 | 106 | -1 | 107 | 99
COc1ccc(N=Cc2ccc3ncccc3c2)cc1 | . | -2 | 106 | 93
CC1(C)C(=O)N(CC(=O)Nc2nccs2)c2ccccc21 | 105 | -8 | . | .
Cc1cc(Br)cc2c1N(C)C(=O)/C2=C1\SC(=Nc2ccc(F)cc2)NC1=O | 109 | . | 74 | 83
O=c1[nH]cc(N2CCCCC2)c(=O)[nH]1 | 104 | -19 | 97 | 83

Quoted from the listing.
`CCN(C(=O)Cc1ccc(F)cc1)C1CCCCC1` in Sa growth 42C has 104
`Cc1cc(C(=O)Oc2ccc(Cl)cc2)no1` in GIV Gai3 FP has 106
`COc1ccc(N=Cc2ccc3ncccc3c2)cc1` in Sa growth 42C second temp has 93

(listing goes on)
SMILES | GIV Gai3 FP | HCMV NEC inh | Sa growth 42C | Sa growth 42C second temp
Cc1ccc(NS(=O)(=O)c2cn(C)c(C)n2)cc1F | 110 | -5 | . | .
CCN(CC(=O)Nc1cccc(F)c1)CC(=O)Nc1ccc2c(c1)OCCO2 | . | 6 | 86 | 92
Cc1ccc(CNC(=O)C2CSC(c3cccs3)=N2)cc1 (stereo unspecified) | 101 | -6 | 86 | 104
COC(=O)C(O)(c1c(-c2ccccc2)nc2sccn12)C(F)(F)F (stereo unspecified) | . | -9 | 117 | 99

A portion of the results above:
SMILES | GIV Gai3 FP | HCMV NEC inh | Sa growth 42C | Sa growth 42C second temp
Cc1cc(Br)cc2c1N(C)C(=O)/C2=C1\SC(=Nc2ccc(F)cc2)NC1=O | 109 | . | 74 | 83
O=c1[nH]cc(N2CCCCC2)c(=O)[nH]1 | 104 | -19 | 97 | 83
Cc1ccc(NS(=O)(=O)c2cn(C)c(C)n2)cc1F | 110 | -5 | . | .
